Assay outcomes as filed in PubChem BioAssay.
AmpC nodet inh – Promiscuous and Specific Inhibitors of AmpC Beta-Lactamase (assay without detergent) | P00811 | AmpC nitrocefin hydrolysis, absorbance 480 nm, no detergent; potencies from a single point are estimates | Potency, µM (titrated, usually from 28.7 µM), without a hit: at the top dose activity change, negative = inhibition | actives 1.8% (n = 71,000) | AID 585, 2007; active = falling curve, for most hits resting on a single point; inconclusive = weak or doubtful change; inactive = flat or rising curve; also: % of control where 0% means no effect; about half of the hits show no inhibition at the top dose; a quarter of the inactives give rising signals
Target sequence (P00811 whole entry, looked up): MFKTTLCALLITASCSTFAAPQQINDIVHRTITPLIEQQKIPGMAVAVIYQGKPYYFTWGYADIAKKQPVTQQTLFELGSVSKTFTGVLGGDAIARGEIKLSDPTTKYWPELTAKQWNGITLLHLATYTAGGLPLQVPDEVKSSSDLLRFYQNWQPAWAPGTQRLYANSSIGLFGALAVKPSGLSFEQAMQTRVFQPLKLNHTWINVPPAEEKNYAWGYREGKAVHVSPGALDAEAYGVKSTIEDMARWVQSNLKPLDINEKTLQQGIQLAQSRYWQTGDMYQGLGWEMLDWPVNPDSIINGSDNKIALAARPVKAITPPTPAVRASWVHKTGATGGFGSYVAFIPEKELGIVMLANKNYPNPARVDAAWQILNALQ
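Enzyme, pH 7.0 phosphate. Compound titrations were pre-incubated with AmpC for 15 min at room temperature before nitrocefin (stock 800 uM) addition; product formation was recorded at 480 nm every 20 s for 4 min.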
Numbers without * were called inactive; ? = inconclusive; [ ] = dose if it differs, or a comment. Potency is read from the fitted curve at half-maximal effect. These rows are one share of the data; rates above refer to the full screens.

A first look:
canonical_smiles	AmpC nodet inh
COc1ccc(C2=NOC(C(=O)N3CCOCC3)C2)cc1OC (stereo not drawn)	-3%
Cc1cccc(-c2nc(CS(=O)CC(=O)N3CCc4ccccc4C3)c(C)o2)c1 (stereo not drawn)	137%

The list itself, repeating the preview:
canonical_smiles	AmpC nodet inh
COc1ccc(C2=NOC(C(=O)N3CCOCC3)C2)cc1OC (stereo not drawn)	-3%
Cc1cccc(-c2nc(CS(=O)CC(=O)N3CCc4ccccc4C3)c(C)o2)c1 (stereo not drawn)	137%
CC1CC(C)CN(C(=O)COc2ccc(-c3nnco3)cc2)C1 (stereo not drawn)	4%
Cc1ccc(C2(c3ccc(C)c(O)c3C)CCN(C)CC2)c(C)c1O	-1%[5.75 µM]
CCOC(=O)c1c(N)sc(C(=O)Nc2ccc3c(c2)OCO3)c1C	0%
Cc1nc2ccccn2c1/C(O)=C1\C(=O)C(=O)N(CCCN(C)C)C1c1ccc(F)cc1 (stereo not drawn)	-2%
c1ccc(-n2c(-c3ccco3)nnc2N2CCOCC2)cc1	10%
Cc1cc(Cl)ccc1OCC(=O)Nc1nc(N)nc(N)n1	-7%[5.75 µM]
Cn1cnc2c(N3CCCCC3)nccc21	-8%
CC1CN(C(=O)N2c3ccccc3Sc3ccccc32)C(C)CC1=O (stereo not drawn)	88%
COC(=O)c1cccc(OCC(O)Cn2cnc3cc(C)c(C)cc32)c1 (stereo not drawn)	123%
O=C(CN1CCOCC1)Nc1cccc(Cl)c1Cl	31%
CCN1CCCC1CNC(=O)c1csc2c1CCCC2 (stereo not drawn)	-3%
COc1ccc(OC)c(N(CC(=O)Nc2ccccc2)S(C)(=O)=O)c1	12%
CC(=O)N(CCc1ccccc1C)Cc1cc2cc3c(cc2[nH]c1=O)OCO3	65%
CCSc1nnc2c(n1)OC(C)(C)Nc1ccccc1-2	-4%
CC(=O)N(c1c(C)n(C)n(-c2ccccc2)c1=O)C1(C(=O)NC2CCCC2)CCCCC1	36%
O=C(NCc1ccccc1Cl)C1CCN(S(=O)(=O)N2CCC3(CC2)OCCO3)CC1	40%
CCOC(=O)SC1=N/C(=C\c2ccc(N(C)C)cc2)C(=O)S1	16µM*
Cc1ccccc1S(=O)(=O)Cc1ccc(C(=O)NCCN2CCCCC2C)o1 (stereo not drawn)	0%
Cc1nn2c(-c3cccc(NC(=O)CSc4nc5ccccc5o4)c3)nnc2c2ccccc12	35%
Nc1cccc(-n2nncc2-c2ccc(Cl)cc2)c1	3%
COCCNc1ncnc2ccc(-c3cccc(NS(C)(=O)=O)c3)cc12	-16%
COc1ccc2c(C=Nc3c(C)n(C)n(-c4ccccc4)c3=O)c(O)n(Cc3ccco3)c(=O)c2c1	21%
C[C@@H](CN(C)C)CN1c2ccccc2CCc2ccccc21	29%[12.8 µM]

canonical_smiles	AmpC nodet inh
CCCc1nc2c(sc3nc4c(cc32)COC(C)(C)C4)c(=O)n1Cc1ccco1	116%
CCOC(=O)C1CCN(C(=O)CCc2nc3ccccc3[nH]2)CC1	-10%
O=c1nc(-c2ccccc2)n(-c2ccccc2)c2ncccc12	-5%
CN1C(=O)Cc2cc(S(=O)(=O)N3CCOCC3)ccc21	-7%
CC(=O)N1CCc2cc(Br)cc(S(=O)(=O)NCc3ccccn3)c21	-4%
CCc1nnc(NC(=O)Cn2ccc(C(F)(F)F)n2)s1	-3%
Cc1cc(Nc2ccc3c(c2)OCCO3)n2nc(C)nc2n1	3%
COc1ccc2c(CC(=O)Nc3ccc(OC)c(NS(=O)(=O)c4ccc(F)cc4)c3)coc2c1	?
CN(C)c1ncc2nc(-c3ccccc3)c(=O)n(Cc3cccs3)c2n1	5%
CCc1nnc(NC(=O)CSc2nnc(-c3c[nH]c4ccccc34)n2CCOC)s1	2%
COC(=O)Nc1ccc(C)cc1NC(=O)OC	2%
CC(C)(C)c1ccc(OCC(=O)NCc2ccco2)c(Br)c1	9%
O=C(CN1CCOc2ccccc21)NC1CCCCCCC1	72%
O=S(=O)(Nc1nccs1)c1ccc([As](=O)(O)O)cc1	2%[5.75 µM]
Cc1ccc(C)c(NC(=O)Cn2nnc(C(=O)Nc3c(C)cccc3C)c2N)c1	-5%
COc1ccc(C2c3c(-c4cc(Cl)c(C)cc4O)n[nH]c3C(=O)N2Cc2cccnc2)cc1OC (stereo not drawn)	134%
c1ccn2cc(CSc3nnc4ccccn34)nc2c1	-2%
c1ccc(N(c2ccccc2)c2nc(-n3ccnc3)nc(-n3ccnc3)n2)cc1	88%
CCOC(=O)C(C)Oc1cccc2c(=O)n(CC(=O)NCc3ccc4c(c3)OCO4)ccc12 (stereo not drawn)	-5%
CC1(C)NC(=O)N(CC(O)CN2CCOCC2)C1=O (stereo not drawn)	-1%
N#Cc1cccc(-c2nc3cnc(N4CCNCC4)nc3n(C3CC3)c2=O)c1	31%
Cc1ccc2c(c1)nnn2C1CCN(CC(=O)NCCc2ccccc2)CC1	119%
Cn1c(SCC(=O)N2CCOCC2)nnc1-c1cnccn1	-8%
Cc1c(C(=O)N2CCCCC2)sc(NC(=O)C2CC2)c1C#N	6%
O=C1N(CN2C(=O)C3(OCCO3)c3ccccc32)c2ccccc2C12OCCO2	24%

canonical_smiles	AmpC nodet inh
CCCn1c(=O)c(C(=O)Nc2nnc(CC)s2)c(O)c2ccccc21	42%
COC(=O)COc1ccc2oc(=O)cc(C)c2c1	-1%
COc1cccc(N2CCCn3c2nc2c3c(=O)n(CCN3CCOCC3)c(=O)n2C)c1	-4%
CCN1CCN(Cc2cc(=O)oc3ccc(Cl)cc23)CC1	-4%
CCCCC12CN3CC(C)(CN(C1)C31C(=O)N(C)c3ccc(C)cc31)C2=O (stereo not drawn)	72%
CCOC(=O)N1CCN(C(=O)COc2ccc(Br)cc2)CC1	48%
C[C@@H](C(=O)Nc1ccc2ccccc2c1)[C@@H]1C[C@@]1(C)[C@@H](NC(=O)c1ccncc1Cl)c1ccccc1	36%
CC(C)CCN1C(=O)c2ccc(C(=O)OCn3nnc4ccccc4c3=O)cc2C1=O	23%
CCc1ccccc1NC(=O)CSc1nc2c(c(-c3ccco3)c1C#N)CCCC2	-9%
COc1ccccc1NC(=O)CN(Cc1ccco1)C(=O)c1cccs1	16%
C=CCC1c2cccc(C(=O)O)c2C(=O)N1c1cccc(C)c1 (stereo not drawn)	9%
COc1ccc(CCNC(=O)Cn2c(=O)oc3ccccc32)cc1OC	7%
Cc1nonc1NC(=O)CSc1ccc(-c2ccccc2)nn1	-16%
O=[As](O)(O)c1ccc(NCc2ccccc2)cc1	-4%[5.75 µM]
O=C(C1COc2ccccc2O1)N1CCc2ccccc21 (stereo not drawn)	-5%
Cc1cccc(N2CCN(C(=O)c3ccc(NC(=O)C4CCCO4)cc3)CC2C)c1 (stereo not drawn)	88%
CCCOCC(C)O (stereo not drawn)	0%
COc1cccc(C2CC(c3c(Cl)cccc3Cl)n3nc(N)nc3N2)c1 (stereo not drawn)	4µM*[single pt active]
Cc1ccc(-c2cn3nc(C)c(C)nc3n2)cc1	11%
Cn1c(Cn2c(=O)sc3ccccc32)nnc1SCC(=O)Nc1ccc(F)cc1	4µM*[single pt active]
CCn1c(Cn2nnc(-c3ccccc3)n2)nnc1SCC(=O)Nc1cccc(C(C)=O)c1	87%
N#Cc1ccccc1Cn1c(=O)n(Cc2ccc(C(=O)NCc3ccco3)cc2)c(=O)c2sccc21	4µM*[single pt active]
COc1ccc(NC(=O)c2ccccc2Cl)cc1NC(=O)CN1CCOCC1	14%
CCOC(=O)N1CCN(S(=O)(=O)c2ccc(C(=O)Nc3nc4ccc(F)cc4s3)cc2)CC1	54%
CCC(=O)N1CCN=C1SCc1ccc(F)cc1	6%

canonical_smiles	AmpC nodet inh
OCc1nc2ccccc2n1CC(O)Cn1ccc2ccccc21 (stereo not drawn)	29%
CCOC(=O)N1CCN(C(=O)CCCOc2ccccc2)CC1	40%
C=Cc1ccccc1Cl	-15%
c1ccc2c(c1)CNC1(CCCCC1)C2	-4%
O=C(c1nc2ccc([N+](=O)[O-])cc2[nH]c1=O)[C@@H](O)c1ccc2c(c1)OCO2	-4%[5.75 µM]
Cn1c(N)c(C(=O)COC(=O)Cc2ccsc2)c(=O)n(C)c1=O	-1%
CCOc1ccccc1C1C(C(=O)Nc2ccccc2OC)=C(C)Nc2nnnn21 (stereo not drawn)	44%
O=C(COc1ccc(S(=O)(=O)NC2CCCCC2)cc1)NCc1ccccn1	20%
COc1ccc(-c2nnc(SCC(=O)N3CCc4ccccc4C3)o2)cc1	38%
C=CCn1c(SCC#N)nc2ccccc2c1=O	1%
Cc1oc2cc3oc(=O)c4c(c3cc2c1C)CCC4	8%
COc1cccc(NC(=O)[C@@H]2CCCN2C(=O)C2CCN(S(=O)(=O)c3ccc(C)cc3)CC2)c1	52%
N#CCCCCN1c2cccc3cccc(c23)S1(=O)=O	0%
CSC1(SC2=NCCN2)SC2(NCCN2)S1	-3%[5.75 µM]
COC(=O)NCc1cc2cc(Cl)ccc2[nH]1	5%
O=C1CS[C@@H](c2ccccc2Cl)c2cc(Cl)ccc2N1	33%
COc1ccc(OCC(O)CNCc2ccco2)cc1 (stereo not drawn)	25%
Cc1ccc(S(=O)(=O)n2nc(OC(=O)c3cccs3)cc2N)cc1	-18%
Cc1cccc(-n2nc3c(c2NC(=O)c2ccc(S(=O)(=O)N4CCOCC4)cc2)CSC3)c1C	39%
O=C(c1ccc(Cn2cc(Cl)cn2)o1)N1CCN(Cc2ccc3c(c2)OCO3)CC1	91%
CC1(C)NC(=O)N(CN2C(=O)NC(C)(C)C2=O)C1=O	-14%
O=C(CSc1nnc(Cc2cc(=O)[nH]c(=O)[nH]2)n1-c1ccccc1)NCC1CCCO1 (stereo not drawn)	0%
Nc1nc(SCc2ccccn2)c2ncn(C3CCCC3)c2n1	-7%[5.75 µM]
Cc1cccn2c(=O)c3cc(C(=O)NCCCn4ccnc4)n(C)c3nc12	79%
C=CCOc1cccc(C2/C(=C(/O)c3ccccc3)C(=O)C(=O)N2CCCN2CCOCC2)c1 (stereo not drawn)	-3%

canonical_smiles	AmpC nodet inh
CC(=O)c1ccc(Nc2nc(C)nc3c2oc2ccccc23)cc1	1%
Cc1ccc(SCCNC(=O)CN(c2ccc3c(c2)OCO3)S(C)(=O)=O)cc1	56%
CN1CCC(OC(=O)C23CCC(C)(C(=O)O2)C3(C)C)CC1 (stereo not drawn)	-21%
Nc1ccc(-c2nc3c(Cl)cc(N)cc3[nH]2)cc1	-21%
O=C(CN1C(=O)NC2NC(=O)NC21)NC1CCCCC1 (stereo not drawn)	2%
COc1cc(N)cc(NC(=O)c2ccncc2)c1	2%
O=C(CCCN1CCC2(CC1)C(=O)NCN2c1ccccc1)c1ccc(F)cc1	29%
Cc1c(C(=O)N(Cc2cccs2)C2CCS(=O)(=O)C2)oc2ccccc12 (stereo not drawn)	62%
CCOC(=O)COc1ccc(C2NC(C(=O)O)CS2)cc1 (stereo not drawn)	-13%
O=C(Nc1ccccc1)c1ccc(NCCN2CCOCC2)c(S(=O)(=O)N2CCOCC2)c1	106%
CCCSCCCNC(=O)c1cc2c(s1)CS(=O)(=O)C2	0%
COc1ccc(CC(C)N2CCN(c3ccccc3OC)CC2)cc1OC (stereo not drawn)	9%
CS(=O)(=O)Nc1cccc(-c2nccc(NCc3ccccc3)n2)c1	28%
CCNc1nc(SC(C)C(=O)OC)nc(N2CCOCC2)n1 (stereo not drawn)	11%
Cc1ccc2nc(NC3=NCN(CCN4CCOCC4)CN3)nc(C)c2c1	13%
COc1cc(CCN)ccc1O	-3%
CCOC(=O)C1=C(C)NC(=O)N(C(C)=O)C1c1ccc(Cl)cc1 (stereo not drawn)	24%
O=C(Cc1c(F)cccc1Cl)Nc1cccnc1	5%
O=C(O)c1ccccc1[N+](=O)[O-]	3%
CN1CCN(C(=O)C23CC4CC(CC(C4)C2)C3)CC1	2%
O=C(O)c1ccc(Cl)cc1Cl	-5%
COCCn1c(SCC(=O)OCc2ccccc2)nc2c1c(=O)[nH]c(=O)n2C	0%
O=C(CCCN1C(=O)c2ccccc2C1=O)Nc1ccc(S(=O)(=O)N2CCOCC2)cc1	12%
CNc1nc(-c2cccnc2)nc2ccccc12	-24%
COc1cccc(N)c1	3%
Nc1nonc1-c1noc(N2CCCCC2)n1	-5%
COc1cc(C(=O)Nc2ccncc2)cc(OC)c1OC	1%
COc1ccc(-c2nnn(Cc3nn[nH]n3)n2)cc1OC	-13%

Part of the list above, set out differently.
O=C(O)c1ccccc1[N+](=O)[O-]
  AmpC nodet inh = 3%
c1ccc(N(c2ccccc2)c2nc(-n3ccnc3)nc(-n3ccnc3)n2)cc1
  AmpC nodet inh = 88%
COc1ccc(OCC(O)CNCc2ccco2)cc1 (stereo not drawn)
  AmpC nodet inh = 25%
CCSc1nnc2c(n1)OC(C)(C)Nc1ccccc1-2
  AmpC nodet inh = -4%
